Compound activity deposited in PubChem by several laboratories.
Mtb growth = M. tuberculosis H37Rv growth inhibitors, H37Rv strain (AID 1626); M. tuberculosis H37Rv growth inhibition; higher % means a stronger effect; inhibition, % at 10 µM; hits with a dose series show IC50 in µM; actives 0.95% (n = 220,000);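 active = confirmed in a dose series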;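 also: bacteria incubated seven days before Alamar blue readout; 0% = bacteria only wells and 100% = bacteria with antibiotic wells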
RecA splice inh = Mtb RecA intein splicing inhibition. P9WHJ3. cell-free RecA intein splicing, fluorescence. inhibition, %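 (about 9 µM by stock and volumes)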. actives 0.75% (n = 290,000). AID 2221; in the data active = inhibition above about 30%;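 also: 0% = vehicle wells and 100% = reference inhibitor control wells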
Target sequence (P9WHJ3 whole entry, looked up, canonical isoform): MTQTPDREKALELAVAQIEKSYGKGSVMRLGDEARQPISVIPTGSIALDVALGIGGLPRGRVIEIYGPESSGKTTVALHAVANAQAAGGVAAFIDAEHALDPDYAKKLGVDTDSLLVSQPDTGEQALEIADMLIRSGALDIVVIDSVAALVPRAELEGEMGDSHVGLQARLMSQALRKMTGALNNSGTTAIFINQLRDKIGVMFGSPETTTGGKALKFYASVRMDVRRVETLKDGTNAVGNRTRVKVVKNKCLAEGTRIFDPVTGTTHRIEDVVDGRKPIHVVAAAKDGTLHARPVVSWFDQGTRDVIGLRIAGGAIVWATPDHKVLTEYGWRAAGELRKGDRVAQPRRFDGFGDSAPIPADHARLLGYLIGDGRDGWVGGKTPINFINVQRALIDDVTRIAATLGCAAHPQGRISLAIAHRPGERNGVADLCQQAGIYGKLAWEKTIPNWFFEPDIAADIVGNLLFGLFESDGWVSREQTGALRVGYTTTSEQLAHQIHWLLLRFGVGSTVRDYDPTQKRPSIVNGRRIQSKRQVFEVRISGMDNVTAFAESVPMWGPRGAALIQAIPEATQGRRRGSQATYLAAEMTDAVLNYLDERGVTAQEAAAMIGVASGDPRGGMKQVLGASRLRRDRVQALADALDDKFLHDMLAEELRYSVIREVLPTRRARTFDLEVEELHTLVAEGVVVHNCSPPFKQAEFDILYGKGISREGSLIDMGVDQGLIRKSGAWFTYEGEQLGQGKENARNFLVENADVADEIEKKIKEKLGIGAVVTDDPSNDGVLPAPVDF
Active calls of the source: *; / = no result given. This is a subset (hit frequency here may not be typical).

SMILES	Mtb growth	RecA splice inh
S=C(Nc1ccccc1Cl)N1CCCC(c2ccccc2)=N1	-1%	/
CCn1c(O)c(/C=N/NC(=O)c2ccccc2)c(=O)n(CC)c1=S	7%	/
Clc1ccc2nc(-c3ccccc3)nc(C(Cl)Cl)c2c1	6%	/
CC(C)(C)N1CCC1CN (stereo not given)	-4%	/
COC(=O)/C(=C/c1cn(C(C)=O)c2ccccc12)[N+](=O)[O-]	-3%	/
CCOC(=O)/C(C#N)=C/Nc1cc(C(=O)OCC)cc2c(OC)c(OC)ccc12	5%	/
COc1cccc(N2CC(C(=O)NCc3n[nH]c(=O)c4ccccc34)CC2=O)c1 (stereo not given)	/	1.9
COc1ccc(/C=N/NC(=O)c2cc3c(ccc4ccccc43)o2)c(OC)c1	/	-7.0
Cc1ccc2oc(C(=O)N(Cc3ccccc3)C3CCS(=O)(=O)C3)c(C)c2c1 (stereo not given)	/	5.8
CC(=O)Nc1cccc(NC(=O)c2ccc(COc3ccccc3)cc2)c1	/	1.7
COc1cc(OC)c(C(=O)Nc2cccc3ccccc23)cc1OC	/	-1.6
O=C(C1CCC(=O)N(C2CC2)C1)N1CCC(Oc2cccc(C(F)(F)F)c2)CC1 (stereo not given)	/	4.1
O=C(c1ccc(Cn2cc([N+](=O)[O-])cn2)o1)N1CCCC1	/	-3.5
O=C(NCc1cccc(Cl)c1)C1CCC(=O)N(CCCN2CCOCC2)C1 (stereo not given)	/	2.5
O=C(O)CCc1cc(I)c(Oc2ccc(O)c(I)c2)c(I)c1	/	12
CCN(C(=O)c1cccs1)C1CCS(=O)(=O)C1 (stereo not given)	/	-2.3
Cc1ccn(CC(=O)N2CCCC(N3CCN(c4ccc(F)cc4)CC3)C2)n1 (stereo not given)	/	0.2
COc1cccc(NC(=O)CSc2nnc3ccc(-c4ccncc4)nn23)c1	/	2.8
Cc1ccccc1-n1ncc2c1CC(C)(C)CC2NC(=O)CCn1cncn1 (stereo not given)	/	1.3
COc1ccc(S(=O)(=O)N(CC(=O)N2CCN(C)CC2)c2ccc(C)cc2)cc1Br	/	-4.2
Cc1cccc(C(=O)C2CCN(S(=O)(=O)c3cccc(C(=O)O)c3)CC2)c1	/	0.6
O=C(N/N=C1/CC2C=CCC12)c1cccs1 (stereo not given)	/	0.2
CCOc1ccc(CN2CCNC(=O)C2CC(=O)NCc2csc(C(C)C)n2)cc1 (stereo not given)	/	5.7
Cc1ccccc1NC(=S)NNC(=O)c1ccco1	/	-2.3
CC(=O)N/C(=N\c1nc(C)cc(C)n1)Nc1ccccc1Cl	/	-0.9
CC/C(Cc1ccccc1)=N/NC(=O)CNC(=O)c1ccc(Cl)cc1Cl	/	0.1
CCc1cc(C(=O)N2CCCC(C(=O)c3ccc(C(F)(F)F)cc3)C2)n(C)n1 (stereo not given)	/	8.3
O=C(CN1C(=O)C2C3C=CC(C3)C2C1=O)OCC(=O)c1ccc(Cl)cc1 (stereo not given)	/	3.7
CCOC(=O)c1cnc(N2CCN(c3ccccc3)CC2)[nH]c1=O	/	-1.5
Cc1cccc(NC2CCCCC2NS(=O)(=O)c2ccccc2)c1 (stereo not given)	/	11
Cc1c([N+](=O)[O-])c(C(=O)NC2CCCC2)nn1C	/	-3.9
COc1cccc(CN2CC(C(=O)NCc3ccc(C)o3)CCC2=O)c1 (stereo not given)	/	-0.2
CC(=O)N1Cc2[nH]c3ccccc3c2CC1C(=O)O (stereo not given)	/	-1.3
CC(=O)NC(Cc1ccccc1C)C(=O)NC1CCN(C(=O)NCc2ccccc2)CC1 (stereo not given)	/	3.2
CCOc1ccc(-n2ccn(CC(=O)NCCc3ccccc3)c(=O)c2=O)cc1	/	2.8
COc1ccc(NC(=O)CSc2nnnn2C2CCCC2)c(OC)c1	/	1.6
COc1cccc(CNC(=O)C2CCC(=O)N(C3CC3)C2)c1OC (stereo not given)	/	-0.6
Cc1ccc(S(=O)(=O)N(C)CC(=O)N2CCC(C(N)=O)CC2)cc1	/	-0.7
Cc1ccc2c(C)c(C(=O)N3CCCC(C(N)=O)C3)oc2c1C (stereo not given)	/	-1.6
CCn1cc(/C=C(\NC(=O)c2ccc(C)cc2)C(=O)NCCN2CCOCC2)c2ccccc21	/	4.5
Cc1ccc(N(C(=O)c2snc(C(N)=O)c2N)C(C(=O)NC2CCCC2)c2ccco2)cc1 (stereo not given)	/	1.4
O=C(Nc1cccc(-c2cscn2)c1)C1CCN(Cc2ccccn2)CC1	/	-1.1
COc1ccc(N(C(=O)c2snc(C(N)=O)c2N)C(C(=O)NCc2ccccc2)c2ccc(O)cc2)cc1 (stereo not given)	/	1.3
COc1ccccc1N1CCN(C2CCCN(C(=O)COc3ccccc3Cl)C2)CC1 (stereo not given)	/	-1.8
COc1ccc(N(C(=O)c2ccco2)C(C(=O)NC2CCCC2)c2ccc(C)cc2)c(OC)c1 (stereo not given)	/	2.3
Cc1cnc(C(=O)N2CCCC(N3CCN(c4ccccc4F)CC3)C2)cn1 (stereo not given)	/	-1.9
O=C(NCc1ccon1)C1CCC(=O)N(CCc2cccc(F)c2)C1 (stereo not given)	/	-2.8
O=C(NCc1ccco1)c1cccc(S(=O)(=O)N2CCCC2)c1	/	3.2
CC(=O)Nc1cccc(-c2cc(C)c3cc4c(cc3n2)OCO4)c1	/	-1.4
COc1ccccc1NC(=O)CN1CCN(CC(=O)Nc2ccc(F)cc2F)CC1	/	0.1
CN(C)CCCNc1ncnc2c1cnn2Cc1ccccc1Cl	/	-2.2
CC(=O)c1cccc(NC(=O)CSc2nnnn2C2CCCC2)c1	/	1.5
COc1cc(CN2CCNC(=O)C2CC(=O)N(C)CCN2CCOCC2)cc(OC)c1 (stereo not given)	/	0.2
CCN(CC)S(=O)(=O)c1ccc(N2CCN(S(=O)(=O)c3ccccc3)CC2)nc1	/	-0.1
Cc1cccc(-c2nnc(SCC(=O)NC3CCCC3)o2)c1	/	0.7
CCN1CCN(C(CNS(=O)(=O)c2ccc(C)cc2)c2ccccc2)CC1 (stereo not given)	/	1.3
O=c1c2cn(Cc3ccccc3)c3ccccc3c-2nn1Cc1ccc(F)cc1Cl	/	2.1
COc1cccc(C(=O)N2CCN(C(=O)C3CC3)CC2)c1	/	0.8
Cc1ccc(Cn2cccc(NS(C)(=O)=O)c2=O)cc1	/	0.7
COc1cccc(CNCc2ccco2)c1O	/	-1.3
(more compounds)
SMILES	Mtb growth	RecA splice inh
O=C(Cn1cnc([N+](=O)[O-])c1)Nc1ccc(F)c(Cl)c1	/	0.4
O=C(NCC1CCCO1)c1cc(S(=O)(=O)N2CCOCC2)c(Cl)cc1Cl (stereo not given)	/	-2.0
COc1ccccc1CN1CC(C(=O)NCc2cc(F)ccc2C)CCC1=O (stereo not given)	/	-2.7
CC(C)(CNC(=O)c1ccc(Br)o1)CNC(=O)c1ccc(Br)o1	/	2.9
CN1CCN(c2nc(-c3ccc(Cl)cc3)nc3ccccc23)CC1	/	2.2
CN(C)S(=O)(=O)c1ccc(Cl)c(NC(=O)CN2CCN(c3ccccn3)CC2)c1	/	-0.8
Cc1c([N+](=O)[O-])c(C/C=N/O)nn1C	/	-0.3
Cc1cc(NC(=O)c2ccc(F)c(S(=O)(=O)N3CCCCC3)c2)no1	/	-2.4
Cc1nn(C)c(C(=O)NNC(=S)NCc2ccccc2)c1Cl	/	-0.8
Cc1ccc(CN(C)C(=O)C2CCC(=O)N(CCc3ccccc3)C2)o1 (stereo not given)	/	-1.7
CCCCOc1cccc(C2C(C(=O)c3ccc(C)o3)=C(O)C(=O)N2c2nnc(C)s2)c1 (stereo not given)	/	1.1
COc1ccc(N2CCN(C(=O)c3ccc(Cn4nc(C)c([N+](=O)[O-])c4C)o3)CC2)cc1	/	-6.9
COc1ccc(C(=O)Nc2cccc3c2CCCC3)c(OC)c1	/	0.0
C=CCOn1c(=O)c(-c2ccc(F)cc2)[n+]([O-])c2ccccc21	/	-0.6
Cc1cc(NC(=O)c2ccco2)ccc1NC(=O)c1ccco1	/	0.5
C=Cc1ccc(C(=O)N2CCCC(Nc3ccc4c(c3)OCCO4)C2)cc1 (stereo not given)	/	1.6
Cc1ccc(C(=O)N2CCCC(CCC(=O)NCc3ccc(F)c(F)c3)C2)cn1 (stereo not given)	/	6.7
O=C(COc1ccc(F)cc1)NCCCn1ccnc1	/	-0.6
CC(=O)Nc1ccc(C(=O)N(C2=NC(C)CS2)c2ccc(Cl)cc2)cc1 (stereo not given)	/	4.4
Cc1cc(C)n2nc(C(=O)N3CCCC(N4CCN(c5ccccc5C)CC4)C3)cc2n1 (stereo not given)	/	-5.1

Nothing new here: an excerpt of the list.
SMILES	Mtb growth	RecA splice inh
CC(=O)Nc1cccc(-c2cc(C)c3cc4c(cc3n2)OCO4)c1	/	-1.4
COc1ccccc1NC(=O)CN1CCN(CC(=O)Nc2ccc(F)cc2F)CC1	/	0.1
CN(C)CCCNc1ncnc2c1cnn2Cc1ccccc1Cl	/	-2.2
CC(=O)c1cccc(NC(=O)CSc2nnnn2C2CCCC2)c1	/	1.5
COc1cc(CN2CCNC(=O)C2CC(=O)N(C)CCN2CCOCC2)cc(OC)c1 (stereo not given)	/	0.2
CCN(CC)S(=O)(=O)c1ccc(N2CCN(S(=O)(=O)c3ccccc3)CC2)nc1	/	-0.1
Cc1cccc(-c2nnc(SCC(=O)NC3CCCC3)o2)c1	/	0.7
CCN1CCN(C(CNS(=O)(=O)c2ccc(C)cc2)c2ccccc2)CC1 (stereo not given)	/	1.3
O=c1c2cn(Cc3ccccc3)c3ccccc3c-2nn1Cc1ccc(F)cc1Cl	/	2.1
COc1cccc(C(=O)N2CCN(C(=O)C3CC3)CC2)c1	/	0.8
Cc1ccc(Cn2cccc(NS(C)(=O)=O)c2=O)cc1	/	0.7
COc1cccc(CNCc2ccco2)c1O	/	-1.3
O=C(Cn1cnc([N+](=O)[O-])c1)Nc1ccc(F)c(Cl)c1	/	0.4
O=C(NCC1CCCO1)c1cc(S(=O)(=O)N2CCOCC2)c(Cl)cc1Cl (stereo not given)	/	-2.0
COc1ccccc1CN1CC(C(=O)NCc2cc(F)ccc2C)CCC1=O (stereo not given)	/	-2.7
CC(C)(CNC(=O)c1ccc(Br)o1)CNC(=O)c1ccc(Br)o1	/	2.9
CN1CCN(c2nc(-c3ccc(Cl)cc3)nc3ccccc23)CC1	/	2.2
CN(C)S(=O)(=O)c1ccc(Cl)c(NC(=O)CN2CCN(c3ccccn3)CC2)c1	/	-0.8
Cc1c([N+](=O)[O-])c(C/C=N/O)nn1C	/	-0.3
Cc1cc(NC(=O)c2ccc(F)c(S(=O)(=O)N3CCCCC3)c2)no1	/	-2.4
Cc1nn(C)c(C(=O)NNC(=S)NCc2ccccc2)c1Cl	/	-0.8
Cc1ccc(CN(C)C(=O)C2CCC(=O)N(CCc3ccccc3)C2)o1 (stereo not given)	/	-1.7
CCCCOc1cccc(C2C(C(=O)c3ccc(C)o3)=C(O)C(=O)N2c2nnc(C)s2)c1 (stereo not given)	/	1.1
COc1ccc(N2CCN(C(=O)c3ccc(Cn4nc(C)c([N+](=O)[O-])c4C)o3)CC2)cc1	/	-6.9
COc1ccc(C(=O)Nc2cccc3c2CCCC3)c(OC)c1	/	0.0
C=CCOn1c(=O)c(-c2ccc(F)cc2)[n+]([O-])c2ccccc21	/	-0.6
Cc1cc(NC(=O)c2ccco2)ccc1NC(=O)c1ccco1	/	0.5
C=Cc1ccc(C(=O)N2CCCC(Nc3ccc4c(c3)OCCO4)C2)cc1 (stereo not given)	/	1.6
Cc1ccc(C(=O)N2CCCC(CCC(=O)NCc3ccc(F)c(F)c3)C2)cn1 (stereo not given)	/	6.7

Next section.
SMILES	Mtb growth	RecA splice inh
O=C(Nc1ccc(Oc2cccnc2)cc1)C1CCN(Cc2ccccc2F)CC1	/	1.3
Cc1nnnn1/C(=C\c1ccccc1)C(=O)OCC(=O)NC1CCCCC1	/	3.2
Cc1ccccc1OCC(=O)Nc1ccccc1-c1ccccc1	/	13
CC(C)C(=O)N1CCN(CCN2C(=O)c3cccc4cccc(c34)C2=O)CC1	/	0.6
Cc1cc(Cl)ccc1OCC(=O)Nc1ccc(CN2CCOCC2)cc1	/	-4.2
O=C(Nc1ccc(Cl)cn1)c1cccc(S(=O)(=O)N2CCCCC2)c1	/	4.3
CC1OC(OC2C(OC3C(O[C@H]4CC[C@]5(C)C6C=C[C@]78OC[C@@]9(CC[C@@H](C)[C@H](C)C97)[C@H](O)C[C@@]8(C)[C@]6(C)CC[C@H]5C4(C)C)OC(C)C(O)C3O)OC(CO)C(O)C2O)C(O)C(O)C1O (stereo not given in full)	/	15
O=C1CCc2cc(S(=O)(=O)NCc3ccc(F)cc3)cc3c2N1CC3	/	1.1
NC(=O)c1nsc(C(=O)N(Cc2ccco2)C(C(=O)NC2CCCC2)c2ccc(O)cc2)c1N (stereo not given)	/	0.9
CC(=O)Nc1ccc(S(=O)(=O)N2CCC(NC(=O)C(Cc3ccc(C)cc3)NC(C)=O)CC2)cc1 (stereo not given)	/	0.8
Cc1cc(OCCn2nc(C(=O)O)c3ccccc3c2=O)ccc1C(C)C	/	3.1
CC(C)(C)OC(=O)NC1CC2CCCC(C1)N2Cc1ccccc1 (stereo not given)	/	1.6
O=C(c1ccc(S(=O)(=O)N2CCCC2)cc1)N1CCN(S(=O)(=O)c2cccc(F)c2)CC1	/	0.4
O=C(CNC(=O)c1cccs1)N/N=C/c1cccc(Br)c1	/	-3.6
COc1ccc(N(C(=O)c2snc(C(N)=O)c2N)C(C(=O)NC2CCCC2)c2ccco2)cc1OC (stereo not given)	/	0.2
CN(C)CCNc1ccc(-c2n[nH]c(=O)c3ccccc23)cc1[N+](=O)[O-]	/	0.4
CCCCn1c(=O)c2c(nc3n2CCCN3Cc2ccccc2)n(C)c1=O	/	4.3
CN(CC1CCCN(CCc2cccc(C(F)(F)F)c2)C1)C(=O)c1cc2ccccc2o1 (stereo not given)	/	4.4
O=S(=O)(c1ccccc1)N1CCC2(CC1)OCCN2S(=O)(=O)c1cccs1	/	11
